# Biofilm kill mix = clotrimazole potentiators killing C. albicans biofilm, primary screen, 4-compound mixtures | C. albicans biofilm persisters + clotrimazole, fluorescence viability; primary screen in compound mixtures of four per well | inhibition, % at 7.6 µM | 0.02% of 120,000 active | AID 1242, 2008;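 active means inhibition above 30.3% in the primary screen of four-compound pools, then above 30% when the compound was retested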;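 further: compounds exposed to preformed 24 h biofilms for 48 h; the number belongs to the whole pool; some results filed as inactive read as strong as hits; inactives centre near 12; 0% = biofilm with clotrimazole alone and 100% = kill control; retested singly at about 60 µM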
#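 Test system: C. albicans CAF4-2 wild-type biofilms; buffer or medium: RPMI/MOPS medium, pH 7.0; schedule: 24 h biofilm formation, then 48 h compound exposure, 37 °C; detection: Alamar Blue fluorescence; measure: percent inhibition of biofilm viability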
# * = called active by the depositor. Not all compounds are listed (hit frequency here may not be typical).
# Start of the listing, in advance, four compounds:
SMILES,Biofilm kill mix
CC(=O)Cc1nsc(NC(=O)c2ccc(Br)o2)n1,17
CC(=O)C1=C(O)C(=O)N(c2cccnc2)C1c1cccc([N+](=O)[O-])c1 (configuration not stated),8
COc1ccc(Cc2nnc(NC(=O)CSc3ccc(C)cc3)s2)cc1,15
CN(C(=O)CSc1nc2cc(C(=O)O)ccc2c(=O)n1Cc1ccccc1)C1CCS(=O)(=O)C1 (configuration not stated),16

# Results, from the first entry:
SMILES,Biofilm kill mix
CC(=O)Cc1nsc(NC(=O)c2ccc(Br)o2)n1,17
CC(=O)C1=C(O)C(=O)N(c2cccnc2)C1c1cccc([N+](=O)[O-])c1 (configuration not stated),8
COc1ccc(Cc2nnc(NC(=O)CSc3ccc(C)cc3)s2)cc1,15
CN(C(=O)CSc1nc2cc(C(=O)O)ccc2c(=O)n1Cc1ccccc1)C1CCS(=O)(=O)C1 (configuration not stated),16
S=C(Nc1ccc(Nc2ccccc2)cc1)NC1CCCCCC1,8
NC1=NC(=O)/C(=C\c2cccnc2)S1,7
CN1CCN(C(=S)c2ccc(-c3cccc([N+](=O)[O-])c3)o2)CC1,15
CCN(C(C)=O)N(CC)c1nc(Cl)nc(NC(C)C)n1,4
C/C(=N\NC(=S)NCc1ccccc1)c1ccc(C(C)(C)C)cc1,5
N/C(CC(=O)Nc1ccc(F)cc1F)=N\OC(=O)c1cccs1,19
Cc1cc(C(=O)N/N=C/c2cccnc2)n[nH]1,26
CN(C)CCCNc1ccc(S(N)(=O)=O)cc1[N+](=O)[O-],17
O=C(CCCn1c(SCc2cc(=O)n3ccccc3n2)nc2ccccc2c1=O)NCC1CCCO1 (configuration not stated),20
COc1ccc(C(=O)C2CCCN(C3Cc4ccccc4C3)C2)c(OC)c1 (configuration not stated),13
COc1ccc2cc3c(N)nn(C(=O)c4ccccc4Cl)c3nc2c1,17
COCCN(C(=O)CSc1nnc(-c2ccccc2C)n1C)c1c(N)n(Cc2ccccc2)c(=O)[nH]c1=O,8
COc1ccc(N(C(=O)CCl)C(C(=O)NC2CCCCC2)c2cccnc2)cc1 (configuration not stated),12
CCc1nnc(NS(=O)(=O)c2ccc(N/C=C\C(=O)c3ccc4ccccc4c3)cc2)s1,7
Cc1ccc(NC(=O)c2sccc2C)cc1[N+](=O)[O-],21
O=C(CSc1ncn[nH]1)NC1CCCc2ccccc21 (configuration not stated),-4
Cc1ccc(S(=O)(=O)CCSC(=N)N)cc1,18
COc1ccccc1NC(=O)c1ccc(-n2cncn2)nc1,13
CCOc1ccc(N=Cc2c(C)[nH]n(-c3nc4ccccc4[nH]3)c2=O)cc1,8
Cc1c(Cl)cccc1NC(=O)c1ccc(OCC(=O)NCc2ccccc2)cc1,14
O=C(NCc1ccccc1)c1ccccc1-c1nc2ccccc2[nH]1,16
CC(=O)Nc1ccc(Nc2c([N+](=O)[O-])cc(S(C)(=O)=O)cc2[N+](=O)[O-])cc1,25
CC(=O)Nc1ccc(Nc2ccc(N3C(=O)CCCC3=O)cc2[N+](=O)[O-])cc1,5
CC(=O)c1ccc(OCc2ccccc2)c(C)c1O,12
COc1ccc(/C=N/NC(=O)c2ccco2)cc1Cn1nc(C)c([N+](=O)[O-])c1C,8
Cc1ccc(NC(=S)NCCc2ccc(F)cc2)c(C)c1,14
CCN(CC)CCOC(=O)c1ccc(N/C=C(/C#N)c2nc(-c3ccc4c(c3)OCO4)cs2)cc1,17
Cc1ccc(N2C(=O)CSC2=S)cc1C,3
CCN(CC)S(=O)(=O)c1cc(NC(=O)CN2CCN(c3ccccn3)CC2)ccc1C,-6
C/C(=N\NC(=O)c1cc2c(s1)CCC(C)C2)c1ccncc1 (configuration not stated),8
CCOC(=O)C1C(=O)CC(C)(O)C(C(=O)OCC)C1c1ccc(N(CC)CC)cc1 (configuration not stated),11
CC12CCC(=O)N1C(C(=O)Nc1cccc3ccccc13)CS2 (configuration not stated),5
Cc1cc(NC(=O)C2C3C(=O)N(CC4CCCO4)C(C(=O)NC(C)(C)C)C34C=CC2(C)O4)no1 (configuration not stated),11
O=C(Nc1ncn[nH]1)c1ccccc1O,22
OC[C@@H]1CCCN1Cc1nc(-c2cccs2)no1,21
COc1ccc(C(=O)N/N=C/c2sc3ccccc3c2O)cc1,11
Cc1c(-n2c(SCC(C)C)nc3ccccc3c2=O)c(=O)n(-c2ccccc2)n1C,-8
C=C(C)[C@@H]1CC=C(C(=O)O)CC1,15
COc1ccc(NC(=S)NCc2ccc3c(c2)OCO3)cc1,19
COC(=O)c1nnn(-c2cc(Cl)cc(Cl)c2)c1C(=O)OC,22
O=C(COC(=O)CN1C(=O)c2cccc([N+](=O)[O-])c2C1=O)NC1CCS(=O)(=O)C1 (configuration not stated),8
O=C1c2cccc3c([N+](=O)[O-])ccc(c23)C(=O)N1CCc1ccccn1,25
Cc1cc(/C=N/NC(N)=S)c(C)n1-c1cccc(Cl)c1,3
COc1ccccc1C(=O)OCc1ccc2sc(C)nc2c1,14
CN(C)S(=O)(=O)c1ccc(N2CCCC2)c(C(=O)Nc2nc3ccccc3s2)c1,14
COc1ccc(C(=O)c2sc3nc(C)cc(-c4cccs4)c3c2N)cc1OC,14
CC(C)NC(=O)c1ccc(-n2c(=S)[nH]c3ccccc3c2=O)cc1,14
CC1CCCCC1NC(=O)CO/N=C/c1ccc(OC(F)F)cc1 (configuration not stated),6
COC(=O)CCCNC(=O)CC1C(=O)NCCN1Cc1ccoc1 (configuration not stated),20
Cc1ccccc1C(=O)NC(CC(C)C)C(=O)NN1C(=O)c2ccccc2C1=O (configuration not stated),9
CCCCN1C(=O)C2C3C=CC(C2C1=O)C1C2C(=O)N(CCCC)C(=O)C2C31 (configuration not stated),3
CCOC(=O)c1c(C)[nH]c(C(=O)CSc2nccc(C)n2)c1C,5
COc1ccc(CCNC(=O)CCCOc2cccc(C)c2C)cc1OC,3
Cc1cc(=O)[nH]c(/N=C(\N)Nc2ccc(SC(F)F)cc2)n1,14
CCC(=O)OCC(=O)c1cc(C)n(-c2ccc(Br)cc2)c1C,12
COC(=O)c1ccc(COc2ccc(/C=N/Nc3nc(C)cc(=O)[nH]3)cc2)cc1,14
# The listing continues.
SMILES,Biofilm kill mix
O=C(NCCN1CCOCC1)c1cc(Sc2cccc(Cl)c2)nc2ccccc12,17
Cc1cc(C)c2sc(N(CCCN(C)C)C(=O)c3ccc(Br)s3)nc2c1,19
CCOC(=O)c1cc(C(C)(C)C)oc1CNC(=O)c1c(C)oc2c1CCCC2,17
COc1cc(/C=C2/SC(=O)NC2=O)ccc1Oc1ccc([N+](=O)[O-])cc1[N+](=O)[O-],18
N#Cc1ccc(/C=C/C(=O)c2cccnc2)cc1,0
CC(=O)Nc1ccc(OS(=O)(=O)c2ccc([N+](=O)[O-])cc2)cc1,9
CCC(CC)c1nnc(NC(=O)C2=NNC(=O)CC2)s1,9
CC(O)CNc1cc(N)c([N+](=O)[O-])cc1[N+](=O)[O-] (configuration not stated),7
CCCCCn1c(=O)[nH]c2cc(C(=O)NCCCN(C)Cc3ccccc3)ccc2c1=O,22
COC(C(=O)NCc1ccccc1C)c1ccccc1 (configuration not stated),13
Cc1ccc(NC(=O)/C(=C/c2ccc([N+](=O)[O-])cc2)NC(=O)c2ccccc2)cc1,17
COCCCNC(=O)C1CCC(CNS(=O)(=O)c2ccc(OC)cc2)CC1 (configuration not stated),19
CCCn1nnnc1NC(=O)c1cc(Cl)ccc1Cl,17
CC(C)(C)C1=NN=C2c3ccccc3C(=O)C21 (configuration not stated),16
O=C(CN1C(=O)C2C3C=CC(C4CC34)C2C1=O)Nc1cnc2ccccc2c1 (configuration not stated),5
Cn1nc(C(F)(F)F)c(-c2ccc(Br)cc2)c1NC(=O)c1nccnc1C(=O)O,14
CC1CCc2c(sc3ncn(CCO)c(=O)c23)C1 (configuration not stated),-2
CN(C)S(=O)(=O)c1ccc2c(c1)nc(CCC(=O)NCc1ccc(Cl)cc1)n2C,12
O=C(O)/C=C\C(=O)Nc1ccc(F)c(F)c1F,19
COc1ccc(Nc2nnc(SCC(=O)/C=C3/N(C)c4ccccc4C3(C)C)s2)cc1,4
NC(=O)c1ccc[n+](CC(=O)c2ccccc2)c1,23
CC(C)c1nnc(N2C(=O)c3oc4ccccc4c(=O)c3C2c2ccco2)s1 (configuration not stated),12
COC(=O)c1c(C)[nH]c(C)c1-c1ccc([N+](=O)[O-])cc1,17
O=C(NN=C1CCCC1)c1ccccc1OCc1ccc(Cl)cc1,17
CSc1nc2[nH]ncc2c(=O)n1-c1ccccc1,12
O=C(OCC#Cc1c(COC(=O)c2ccccc2)nnn1Cc1ccccc1)c1ccccc1,18
Cc1nn(C)c(C)c1S(=O)(=O)N1CCC(CO)(CC2CCCCO2)CC1 (configuration not stated),15
CS(=O)(=O)c1ccc2c(c1)sc1nc(=O)c(/C=C3/C=CC(=O)C(O)=C3)c(N)n12,21
C/C(=N\NC(=O)CSc1nc(C)[nH]c1[N+](=O)[O-])c1ccc(F)cc1,8
O=C(COc1ccc([N+](=O)[O-])cc1)Nc1ccccc1N1CCCC1,10

# In a second layout: 6 of the compounds above.
canonical_smiles | Biofilm kill mix
CN(C)S(=O)(=O)c1ccc2c(c1)nc(CCC(=O)NCc1ccc(Cl)cc1)n2C | 12
CC(C)c1nnc(N2C(=O)c3oc4ccccc4c(=O)c3C2c2ccco2)s1 (configuration not stated) | 12
Cn1nc(C(F)(F)F)c(-c2ccc(Br)cc2)c1NC(=O)c1nccnc1C(=O)O | 14
CC1CCc2c(sc3ncn(CCO)c(=O)c23)C1 (configuration not stated) | -2
O=C(NN=C1CCCC1)c1ccccc1OCc1ccc(Cl)cc1 | 17
COC(=O)c1c(C)[nH]c(C)c1-c1ccc([N+](=O)[O-])cc1 | 17

# Part of the list above, with each value named.
> CS(=O)(=O)c1ccc2c(c1)sc1nc(=O)c(/C=C3/C=CC(=O)C(O)=C3)c(N)n12
  Biofilm kill mix = 21
> O=C(OCC#Cc1c(COC(=O)c2ccccc2)nnn1Cc1ccccc1)c1ccccc1
  Biofilm kill mix = 18

# Going on with the list:
SMILES,Biofilm kill mix
O=C(COc1cccc2ccccc12)N/N=C/c1ccncc1,8
O=[N+]([O-])c1ccc(N/N=C/c2ccc(O)c(O)c2O)c(S(=O)(=O)N2CCOCC2)c1,12
COc1ccc(N2CCN(C3CC(=O)N(Cc4ccccc4)C3=O)CC2)cc1 (configuration not stated),12
COc1ccc(/C=N/Nc2nc(N3CCCC3)nc(N3CCCC3)n2)cc1,-3
COc1ccc(-n2cc(C(=O)c3ccc4ccccc4c3O)cn2)cc1,1
c1ccc(C(c2ccccc2)c2noc(CN3CCC(c4ccncc4)CC3)n2)cc1,-9
O=C(Nc1ccc(Cc2ccncc2)cc1)c1ccc(S(=O)(=O)N2CCCC2)cc1,16
CCOc1ccc(/C(O)=C2/C(=O)C(=O)N(CC3CCCO3)C2c2cccs2)cc1 (configuration not stated),4
Cc1c(CC(=O)Nc2ccc(Cl)cc2)sc2ccc(Cl)cc12,18
O=C(O)c1ccccc1Cc1nc2cc(Cl)ccc2c(=O)[nH]1,16
O=C(c1ccc(Oc2cc(Cl)cc(Cl)c2)o1)N1CCCCC1,5
Cc1nc(-c2ccccc2)sc1C1(C)CC(c2cccc([N+](=O)[O-])c2)=NO1 (configuration not stated),17
CCCOc1ccc(C2CC(=O)NC2=O)cc1 (configuration not stated),24
O=C1CC(c2ccccc2)CC(O)=C1C=Nc1ccccc1 (configuration not stated),8
COc1ccc(Br)c(C(=O)NC2CCCC2)c1,5
CC(=O)Nc1ccc(NC(=O)/C=C/c2ccc3c(c2)OCO3)cc1,5
Cc1ccc(NC(=O)Nc2ccno2)cc1,14
COCCNc1nc(-c2ccc(OC)cc2)c(-c2ccc(OC)cc2)s1,6
Cc1cc(C(=O)N/N=C/c2ccc(-c3cccc(Br)c3)o2)n[nH]1,22
CCOC(=O)Cc1csc(NC(=O)Nc2ccc(Cl)cc2)n1,16
CC(=O)NNC(=O)c1sc(=S)n2c1[nH]c(=O)c1sccc12,6
CN(C=[N+](C)C)c1cccc2c1C(=O)c1ccccc1C2=O,4
COc1ccc(C/C(C)=N/NC(=S)Nc2ccccc2F)cc1,18
CCNC(=O)c1c(O)c2c([nH]c1=O)CCCC2,18
CCC(=O)OCC(=O)Nc1ccc2c(c1)OCO2,15
O=C(C(=O)N1CCCc2ccccc21)c1cn(CC(=O)N2CCOCC2)c2ccccc12,22
Cc1cccc(N2CCN(CC(O)COc3ccccc3Cl)CC2)c1 (configuration not stated),17
CC(/C=N/NC(=O)c1c(Br)cnn1C)=C\c1ccccc1,13
CCC(CC(C)(C)O)C(=O)NNC(=S)Nc1ccccc1 (configuration not stated),11
CCOC(=O)c1c(C)oc(NC(=O)CCl)c1C(=O)OCC,6

# A draw from above in order of heavy-atom count, largest number first:
SMILES,Biofilm kill mix
COCCNc1nc(-c2ccc(OC)cc2)c(-c2ccc(OC)cc2)s1,6
CCNC(=O)c1c(O)c2c([nH]c1=O)CCCC2,18
Cc1ccc(NC(=O)Nc2ccno2)cc1,14

# The list continues:
SMILES,Biofilm kill mix
Cc1ccc(C)c(NC2=NCC(=O)N2c2ccc3c(c2)OCCO3)c1,1
CCO/C([O-])=N/c1c[n+](N2CCOCC2)no1,19
Cc1cc(C)cc(-c2nnc(SCC(=O)c3ccc4c(c3)OCCO4)o2)c1,13
CCn1c(SCC(=O)N/N=C(\C)c2ccco2)nnc1-c1ccccc1,24
COc1ccc(Cl)cc1NC(=O)C1(c2cccs2)CCOCC1,30
COC(=O)c1cccc(NC(=O)COc2cccc([N+](=O)[O-])c2)c1,4
O=C(/C(=C/c1cccc(Cl)c1)c1nc2ccccc2[nH]1)c1ccccc1,13
COc1ccc(OCc2nnc(NC(=O)Nc3ccccc3F)s2)cc1,14
CC(C)N=C1NN=C(c2ccc(F)cc2)CS1,5
